Compound activity (PubChem BioAssay)
ugtP null kill: growth inhibition of ugtP-null S. aureus, primary screen, RN4220 ugtP deletion, OD600. AID 1259309, 2017. growth inhibition, % (test concentration not listed). actives 0.54% (n = 330,000). 16 h; some inactives read as strong as hits;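 active = z-score under -3 and OD600 up to 0.15 on both plates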;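 also: plate controls were untreated wells for no effect and antibiotic for full effect; wells of about 80 µL received 100 nL stock; the first replicate is given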
BJeLR lethal: MLPCN primary cell-based screen for lethality selective to Ras in HRASV12 cells. AID 1554, 2009. BJeLR (HRASV12) viability, CellTiter-Glo ATP luminescence, 48 h; reference of the scale not given here. actives 0.17% (n = 300,000). inhibition, % (concentration not given with the values);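 active = replicate mean above 50%; inconclusive = above 50% but judged a plate artefact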;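 also: 50 nL library stock added to about 25 µL; numbers are from one replicate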
Mtb hypoxia rep: PubChem AID 1159583 | M. tuberculosis hypoxia-regulated fluorescent reporter, fluorescence | fluorescence inhibition, % (test concentration not listed) | actives 0.1% (n = 300,000);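 active = 35 to 45% if threefold the growth effect, above 45% if 1.5-fold the growth effect; inactive = the rest, general growth blockers included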;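 also: wells of about 50 µL received 100 nL stock; 0% = vehicle wells and 100% = reference inhibitor wells; whole bacteria with a GFP reporter of the hypoxia response; strong numbers were not always called active; many hits fall short of the cut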
Bead autofluor: compound fluorescence in toxin protease inhibitor counterscreen; fluorescence intensity (concentration not given with the values); actives 3.1% (n = 360,000); AID 624483; compound autofluorescence counterscreen, microsphere flow cytometry; active compounds read high;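 active = at least 3 SD above the mean of all compounds, about 16000 in these data; inconclusive = too few beads counted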;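 also: 100 nL of 1 mM stock went into each well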
PrP UTR inh: inhibition of PrP 5' UTR reporter expression. inhibition, % (concentration not given with the values). actives 0.35% (n = 340,000). cell-based PrP 5' UTR mRNA reporter, plate reader;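 active = every replicate at 50% or more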;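 also: 0 = median of the neutral control wells; tested in H4 reporter cells; numbers are from one replicate; inactives centre near -14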
RN4220 kill: growth inhibition of S. aureus RN4220, primary screen, OD600; 16 h; inhibition, % (test concentration not listed); actives 0.33% (n = 330,000);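 active = z-score of -3 or lower and OD600 up to 0.18 on both plates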;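 also: plate controls were untreated cells for no effect and reference antibiotic for full effect; stock transfer was 100 nL into about 80 µL; one replicate is shown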
Mtb hypoxia rep growth: recorded beside Mtb hypoxia rep, whose call it bears; growth inhibition, %; measured here: M. tuberculosis growth (absorbance);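 0% = vehicle and 100% = reference antibiotic; read after six days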
The depositor's hits bear a star; ? = inconclusive; / = not tested or not shown; & = joins results of further samples.

SMILES	ugtP null kill	BJeLR lethal	Mtb hypoxia rep	Mtb hypoxia rep growth	Bead autofluor	PrP UTR inh	RN4220 kill
O=S(=O)(Nc1cccc2cccnc12)c1ccc(S(=O)(=O)N2CCCC2)cc1	5.2	-3.3	5.6	2.9	4357	-4.3	1.0
C=C(C)C1CC=C(C)/C(=N\NC(=O)CNc2ccccc2OC)C1 (stereo unspecified)	/	-8.0	/	/	2581	-14.7	/
Cn1nc(C(C)(C)C)cc1C(=O)NCc1cc(F)cc2c1OCOC2	5.4	28.6	12.1	-7.4	3688	0.0	2.4
O=C(Nc1ccccc1C(=O)O)c1ccc(N2C(=O)C3CC=CCC3C2=O)cc1 (stereo unspecified)	-3.7	4.8	16.4	11.3	4168	-17.4	-2.4
O=C(O)c1ccc2cccnc2n1	2.8	-0.6	0.3	-1.9	2868	-25.1	2.5
Cc1cc(C)c(S(=O)(=O)c2c(C)cccc2C)c(Cl)n1	-3.9	6.1	-2.3	-0.4	7952	-9.8	0.7
Cc1cc2c(c(=O)n1CCc1ccccc1)C(c1ccco1)C(C#N)=C(N)O2 (stereo unspecified)	2.4	5.9	1.4	-1.5	23680*	-2.8	1.6
CCOC(CNc1ncnc2sc(-c3ccccc3)cc12)OCC	9.2	-6.1	0.0	9.0	3821	-26.9	-1.0
COc1ccc(Cl)cc1N(CC(=O)Nc1ccc2c(c1)OCO2)S(C)(=O)=O	6.3	6.7	9.2	-2.4	9719	-30.5	5.3
O=C(NN1C(=O)/C(=C/C=C/c2ccco2)SC1=S)c1ccccc1O	26.2	0.1	-8.5	-1.7	4128	-23.9	17.7
COc1cccc(-c2nnc(SCc3ccccn3)n2C)c1	14.7	-6.5	/	/	3200	-13.4	2.9
CCCCC(Nc1ncnc2ccccc12)C(=O)O (stereo unspecified)	6.3	-3.7	6.7	10.8	11156	-10.4	0.8
COc1ccc(CCNC(=O)Cn2c(=O)c3cccn3c3cccnc32)c(OC)c1OC	-6.7	-11.6	-7.8	1.0	6224	-23.3	0.3
Cc1ccccc1NC(=O)C(=O)N/N=C/c1cccc(Br)c1	/	2.4	/	/	2229	-12.8	/
Cc1cc(Sc2ncnc(N)c2[N+](=O)[O-])ncn1	-4.9	6.6	14.2	12.5	4527	-19.5	5.6
CC(NS(=O)(=O)OCC(Cl)(Cl)Cl)c1ccccc1 (stereo unspecified)	6.9	4.1	2.7	9.0	3134	-11.5	3.8
CCOc1ccc(Nc2nc(C)cc(C)c2C#N)cc1	-1.3	1.5	4.7	7.9	9185	-0.9	1.3
COc1ccc(CN2CCNC(=O)C2CC(=O)NCC(C)(C)N2CCOCC2)cc1C (stereo unspecified)	8.7	-5.1	2.9	-1.3	5465	-4.3	6.0
COc1ccc(CNC(=O)COC(=O)c2ccco2)cc1	-0.6	-7.7	7.7	0.5	3272	-28.4	1.5
COc1ccc(OC2CCN(S(=O)(=O)c3ccc(OC)c(OC)c3)CC2)cc1	19.0	-1.6	5.4	-1.1	3217	2.5	1.0
CC(C)(C)c1ccc(OCC(=O)NC2CCS(=O)(=O)C2)cc1 (stereo unspecified)	-1.4	7.1	15.3	6.8	19473*	-13.1	5.7
O=C(CSc1cccc(C(F)(F)F)c1)N1CCN(S(=O)(=O)c2ccccc2)CC1	-12.2	-6.7	7.3	7.9	7843	-11.1	8.2
O=S(=O)(c1cccc2cccnc12)N1CCN(c2ccccn2)CC1	7.7	8.1	9.2	6.4	3257	-10.5	6.7
O=C(Nc1c(C(=O)N2CCC(N3CCCCC3)CC2)oc2ccccc12)c1ccc(F)cc1	1.4	-8.0	6.4	-0.8	5787	-1.9	0.3
COc1ccccc1CC1(C)NC(=O)N(CC(=O)Nc2cc(C)on2)C1=O (stereo unspecified)	1.1	-5.5	11.4	2.7	3857	-30.7	1.3
Cc1ccc(N)c(C(=O)c2ccccc2)c1	-7.2	-1.1	8.2	16.9	12869	-21.4	13.5
COc1ccc(NC(C)=O)cc1NC(=O)CSc1nnc(-c2cccnc2)n1C	-0.2	11.2	5.9	-2.5	8994	-2.0	-0.2
O=C(NCCc1ccccc1)Nc1ccc(Cl)cc1	-1.1	15.9	0.0	11.3	2325	-32.1	1.2
COc1c(F)c(F)c(C(=O)Nc2ccc(NC(=O)c3ccco3)cc2)c(F)c1F	-7.6	3.5	/	/	4897	-20.4	-1.3
COc1ccc(C(=O)NC2CCSc3ccccc32)cc1S(=O)(=O)N1CCOCC1 (stereo unspecified)	4.8	2.4	5.9	18.2	5775	-41.4	2.2
CC1(C)CC(NC(=O)c2cc(Cl)ccc2Cl)CC(C)(C)N1	14.2	-6.5	13.3	11.8	2991	-42.0	3.6
O=C(C/C(=N\NC(=O)c1ccccc1Br)C(F)(F)F)c1cccs1	/	1.6	/	/	2198	-17.2	/
COc1ccc(C(=O)NC(=O)COC(=O)C2CC2C)cc1 (stereo unspecified)	3.8	/	1.8	4.7	?	3.6	3.9
O=c1oc2c(CN3CCCCC3)c(O)ccc2c2c1CCCCC2	-5.3	/	-0.5	7.2	11292	-16.6	6.0
Cc1cccc(N2CCN(S(=O)(=O)c3ccc(-c4cc(C)no4)s3)CC2C)c1 (stereo unspecified)	-1.3	8.8	-1.6	-2.7	5646	4.4	1.7
Cc1ccccc1-n1c(Cn2c(=O)sc3ccccc32)nnc1SCC(=O)N1CCCC1	3.6	4.3	/	/	6282	-0.9	-1.1
O=C(COC(=O)Cc1cccc(C(F)(F)F)c1)NC(=O)NC1CCCC1	12.7	/	2.5	5.1	6201	-6.0	9.8
O=C(COc1ccc(Br)cc1)NNC(=S)NCc1ccccc1	-12.2	-12.2	1.8	11.6	3221	1.2	7.7
N#CC(=C(O)COC(=O)Cc1c[nH]c2ccccc12)c1nc2ccccc2[nH]1	-14.6&-11.2	/	10.2&0.9	3.4&4.0	4074	-43.4	7.1&4.1
CCOC(=O)c1c(C(C)(C)C)oc2ccc(OCC#N)cc12	0.1	-3.1	8.9	10.7	3142	5.7	1.2
C=CCOc1c2ccc(C(=O)NCc3ccc(C)cc3)cc2nn1C	3.8	2.8	9.7	11.9	3860	-6.8	5.6
COC(C[C@@H](O)CC(=O)[C@H](C)OCc1ccccc1)OC	/	1.1	/	/	3434	-6.7	/
CCCCNC(=S)N(C)/N=C/c1c(F)c(F)c(F)c(F)c1F	/	6.6	/	/	2090	2.1	/
O=C(NCc1ccccn1)c1cc(-n2cnnc2)ccc1Cl	-5.5	-2.5	0.4	2.0	6054	-22.6	-2.4
CCn1cc(CCC(=O)NCc2cccc(OC)c2OC)c2ccccc21	12.9	-2.3	13.0	9.0	3840	-15.3	1.9
Cc1ccc(C2CC(C(F)(F)F)n3ncc(C(=O)NCc4ccco4)c3N2)cc1 (stereo unspecified)	9.2	5.3	/	/	?	-51.5	0.5
CCc1cccc(C)c1NC(=O)CSc1nc2ccc(N3C(=O)c4ccccc4C3=O)cc2s1	-2.1	2.7	/	/	2778	-10.6	5.8
COc1ccc(-n2c(C)cc(/C=C3\SC(=S)NC3=O)c2C)cc1	-2.0	8.0	7.8	7.3	3139	-35.1	-4.9

Entries above that have an aryl thioether with sulfur outside any ring, in the order listed:
SMILES	ugtP null kill	BJeLR lethal	Mtb hypoxia rep	Mtb hypoxia rep growth	Bead autofluor	PrP UTR inh	RN4220 kill
COc1cccc(-c2nnc(SCc3ccccn3)n2C)c1	14.7	-6.5	/	/	3200	-13.4	2.9
Cc1cc(Sc2ncnc(N)c2[N+](=O)[O-])ncn1	-4.9	6.6	14.2	12.5	4527	-19.5	5.6
O=C(CSc1cccc(C(F)(F)F)c1)N1CCN(S(=O)(=O)c2ccccc2)CC1	-12.2	-6.7	7.3	7.9	7843	-11.1	8.2
COc1ccc(NC(C)=O)cc1NC(=O)CSc1nnc(-c2cccnc2)n1C	-0.2	11.2	5.9	-2.5	8994	-2.0	-0.2
Cc1ccccc1-n1c(Cn2c(=O)sc3ccccc32)nnc1SCC(=O)N1CCCC1	3.6	4.3	/	/	6282	-0.9	-1.1
CCc1cccc(C)c1NC(=O)CSc1nc2ccc(N3C(=O)c4ccccc4C3=O)cc2s1	-2.1	2.7	/	/	2778	-10.6	5.8

Continuation.
SMILES	ugtP null kill	BJeLR lethal	Mtb hypoxia rep	Mtb hypoxia rep growth	Bead autofluor	PrP UTR inh	RN4220 kill
CCc1ccc(NC(=O)NCCCN2CCCC2=O)cc1	4.6	2.6	13.0	-9.8	5596	-33.4	0.5
CC1CC2C(C(O)C[C@@]3(C)C2CC[C@]3(O)C(=O)CO)[C@@]2(C)C=CC(=O)C=C12 (stereo partly specified)	5.3	/	3.0	13.7	/	/	6.4
CN(C)c1cccc(-c2nnc(SCCCC#N)o2)c1	2.9	0.3	14.0	0.8	3209	-53.2	0.3
CC(C)CCN(CCC(C)C)CC(O)Cn1c2ccccc2c(=O)c2ccccc21 (stereo unspecified)	3.8	-4.4	0.5	0.2	4203	-6.3	0.4
O=C(NC1CCCCC1)c1cc(Cl)ccc1[N+](=O)[O-]	/	-1.6	/	/	2431	-20.7	/
Cc1ccc(S(=O)(=O)N2CC(C)N(S(C)(=O)=O)C2)cc1 (stereo unspecified)	-0.7	-5.7	9.4	-1.3	3241	-24.1	2.3
c1ccc2c(CN3CCCCC3)csc2c1	0.8	-5.6	10.9	3.6	2554	-36.5	3.8
CC1(c2ccccc2)CC(C)(C)N(C(N)=O)c2ccccc21 (stereo unspecified)	10.1	5.8	9.4	-13.4	2933	-2.3	7.0
CC(C)C(=O)N1CCN(c2ccccc2NC(=O)COc2ccc(C3CCCCC3)cc2)CC1	-10.4	1.6	6.7	2.9	4556	-7.4	-1.2
Cc1ccc(CNc2ncnc3cc(Cl)ccc23)o1	-5.8	6.7	/	/	2703	-6.0	-5.7
Cc1ccc(S(=O)(=O)N(CC(=O)Nc2cccc([N+](=O)[O-])c2)Cc2ccc(Cl)cc2)cc1	-23.2	/	6.2	6.5	2489	-10.0	-8.6
C=CCNC(=S)N=c1sccn1C	9.0	/	6.5	-7.9	/	/	1.8
Cc1cc(NC(=O)CCC(=O)N(c2ccccc2)C2(C(=O)NC3CCCCC3)CCCC2)no1	-6.8	-9.5	2.6	8.4	4397	-11.4	-2.0
Cc1ccc(S(=O)(=O)Nc2cccc(C(=O)NCC3(N4CCCCC4)CCCCC3)c2)cc1F	10.0	-8.1	3.6	5.4	5270	-14.7	1.8
CCOC(=O)Cc1cnc(NC(=O)c2ccccc2)s1	9.6	5.8	-0.8	0.0	12275	-59.5	0.9
COC(=O)C(C)n1nnc2sc(-c3ccccc3)cc2c1=O (stereo unspecified)	4.4	/	8.1	13.8	4203	-31.3	2.0
COc1ccc(-c2noc(CN(C)C(=O)c3ccoc3C)n2)cc1	10.8	-2.6	0.7	-2.8	3234	-25.3	1.7
CCC(C)(C)NC(=O)C(c1ccncc1)N(Cc1cccs1)C(=O)Cn1nnc2ccccc21 (stereo unspecified)	-5.5	3.2	15.1	13.2	3001	-20.9	-12.6
COCC(C)NC(=O)c1cc2cccc([N+](=O)[O-])c2[nH]1 (stereo unspecified)	1.3	-1.0	17.1	17.4	4481	-17.6	2.6
CC(C)N1CCc2c(sc(NC(=O)CN3C(=O)c4ccccc4C3=O)c2C(N)=O)C1	-2.5	1.5	-1.6	-1.5	3321	-20.8	2.3
CCc1n[nH]c(=S)n1N=Cc1c(C)nn(-c2ccccc2)c1Cl	6.9	/	-6.5	14.7	/	/	4.9
O=C(N[C@H](CO)Cc1ccccc1)c1ccco1	/	8.3	/	/	4056	-14.5	/
Cc1nc(Nc2ccc(Cl)cc2)c(C#N)c(=O)[nH]1	4.7	-0.2	-3.8	-5.0	3360	-9.9	3.7
Cc1ccccc1NC(=S)N(Cc1ccco1)C(C)c1ccccn1 (stereo unspecified)	-10.0	-10.2	5.3	-1.7	4377	-25.2	-1.0
COCCNS(=O)(=O)c1cc(OC)ccc1OC	-7.4	5.6	-5.8	-3.7	4173	-13.0	4.6
COc1ccc([N+](=O)[O-])cc1N(CC(=O)NCCSc1ccccc1)S(C)(=O)=O	4.6	5.8	5.2	16.9	3966	-14.8	3.7
Cc1ccc(COc2ccc(/C=N/NC(=O)CN3CCCCC3)cc2)cc1	/	-0.8	/	/	3530	-35.1	/
